SARS PLpro yeast – SARS-CoV PLP inhibition in yeast | S. cerevisiae expressing SARS-CoV PLpro, growth rescue; control for the full effect not named in the record | Potency, µM (titrated, usually from 32.9 µM), for the others: at the highest dose activity, positive = growth rescue | hit rate 0.19% among 330,000; active means well fitted rising curve with a large enough effect; inconclusive means small, poorly fitted or top-dose-only effect; inactive means no such curve, though single readings can be large or run the other way; also: 0% is about no effect; nearly all actives have a fitted effect of over 55% in size; growth read by luminescence after 48 h
Cruzain inh Det – inhibitors of Trypanosoma cruzi cruzain with detergent; Potency, µM, for the others: max response, negative = inhibition, most hits filed as inhibitors; AID 1478; purified cruzain, Z-FR-AMC fluorescence, 0.01% Triton; hit rate 0.43% among 200,000;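 also: plate controls were neutral wells for no effect and buffer without enzyme for full effect; nearly all actives have a fitted effect of over 40% in size; top concentration of the series not given in the record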
Target sequence (P25779 123-467 limits assumed): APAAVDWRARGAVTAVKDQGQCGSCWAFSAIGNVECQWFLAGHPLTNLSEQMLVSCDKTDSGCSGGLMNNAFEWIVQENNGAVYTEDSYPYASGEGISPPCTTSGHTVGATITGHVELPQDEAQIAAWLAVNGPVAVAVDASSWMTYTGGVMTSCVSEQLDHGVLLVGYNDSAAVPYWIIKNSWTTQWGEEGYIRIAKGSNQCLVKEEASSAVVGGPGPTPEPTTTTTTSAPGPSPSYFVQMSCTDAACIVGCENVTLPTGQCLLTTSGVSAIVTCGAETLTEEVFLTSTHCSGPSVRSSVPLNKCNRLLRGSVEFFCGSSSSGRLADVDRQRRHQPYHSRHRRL
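Enzyme 1.5 nM, Z-FR-AMC 2 uM, NaOAc 100 mM pH 5.5, DTT 5 mM, Triton X-100 0.01%; 15 min RT compound preincubation; kinetic ex360/em450, 60 s delta.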
NS1 inh – influenza NS1 inhibition | hit rate 0.4% among 270,000 | Potency, µM (highest dose often 46.1 µM), without a hit: top-dose activity, positive = more growth | S. cerevisiae slowed by influenza A NS1, growth recovery by OD600; active means well fitted rising curve with a large enough effect; inconclusive means small, poorly fitted or top-dose-only effect; inactive means no such curve, though single readings can be large or run the other way; also: nearly all actives have a fitted effect of over 50% in size
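Compounds were scored for reversing the slow growth caused by influenza A NS1 in S. cerevisiae, measured by optical density at 600 nm. Assay medium contained 2% galactose at pH 6.0; NS1-free yeast of the same strain were the positive control.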
MARV entry inh – blocks Marburg virus binding to or entry into cells; Marburg virus pseudotyped entry inhibition, cell reporter; control for the full effect not named in the record; about a third of the inactives were read at about 46 µM; Potency, µM (highest dose often 37.8 µM), for inactives: at the top dose activity change, negative = inhibition, usual class: inhibitors; hit rate 1.8% among 300,000; active = well fitted inhibition curve with a large enough effect; inconclusive = small, poorly fitted or top-dose-only effect, or effect the other way; inactive = flat fitted curve, though single readings scatter; tested in HEK293 cells; about a fifth of its hits are not listed in these tables; also: % is scaled to controls: 0 for no effect and ±100 for the full control effect; luciferase read-out
Cruzain inh noDet – blocks cruzain activity in detergent-free assay; Potency, µM, for inactives: max response, negative = inhibition, most hits filed as inhibitors; hit rate 2.3% among 200,000; purified cruzain, Z-FR-AMC fluorescence, no detergent; P25779;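 also: plate controls were enzyme without inhibitor for no effect and buffer without enzyme for full effect; nearly all actives have a fitted effect of over 40% in size; top concentration of the series not given in the record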
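Purified cruzain at 1.5 nM, pre-incubated 15 min with compound at room temperature in 100 mM sodium acetate pH 5.5, 5 mM DTT, 0.00005% Triton X-100. Reaction started with 2 uM Z-FR-AMC; AMC fluorescence increase over 60 s gives rate.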
RE007 growth inh – less growth of the S. pombe RE007 Vpr strain. S. pombe RE007 Vpr strain, BacTiter-Glo ATP luminescence, 24 h; control for the full effect not named in the record. hit rate 0.21% among 360,000. AID 651644. Potency, µM (highest dose often 92.2 µM), inactives show top-dose activity change, negative = less growth; active = well fitted falling curve with a large enough effect; inconclusive = small, poorly fitted or top-dose-only effect; inactive = no such curve, though single readings can be large or run the other way;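 also: % is scaled to controls: 0 for no effect and ±100 for the full control effect; nearly all actives have a fitted effect of over 50% in size; the assay follows cell death caused by Vpr and the record does not say whether a fall means rescue or toxicity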
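Fission yeast strain RE007, carrying one chromosomally integrated HIV-1 vpr copy, was seeded at OD 0.01 in PMG+AL medium with 23 nL pinned compound. After 24 h at 30 °C and 99% humidity, viability was read by BacTiter-Glo luminescence.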
LASV entry inh – Lassa virus entry inhibition; Potency, µM (titrated, usually from 37.9 µM), for the others: at the highest dose activity change, negative = inhibition, most hits filed as inhibitors; AID 540256; Lassa virus pseudotype entry inhibition, cell reporter; control for the full effect not named in the record; hit rate 1.2% among 300,000; active means well fitted inhibition curve with a large enough effect; inconclusive means small, poorly fitted or top-dose-only effect, or effect the other way; inactive means flat fitted curve, though single readings scatter; tested in HEK293 cells; also: % is scaled to controls: 0 for no effect and ±100 for the full control effect; nearly all actives have a fitted effect of over 50% in size; luciferase read-out
StopGo reporter – FMDV 2A StopGo reporter, luciferase signal | human cells with a luciferase reporter of 2A StopGo recoding; control for the full effect not named in the record | Potency, µM (top dose mostly 57.9 µM), for the others: at the top dose signal change, negative = less light | hit rate 1.2% among 410,000; active = well fitted falling curve with a large enough effect; inconclusive = small, poorly fitted or top-dose-only effect; inactive = no such curve, though single readings can be large or run the other way; tested in HEK293T cells; also: % is scaled to controls: 0 for no effect and ±100 for the full control effect; nearly all actives have a fitted effect of over 45% in size; luciferase light after 4 h
* = called active by the depositor; u = inconclusive; x = not tested or not shown; & = joins results of further samples; [ ] = another dose, or the depositor's remark. Unless noted, calls follow the shape of the dose curve; as a rule, active = well fitted curve in the direction sought with a large enough effect; inconclusive = small, poorly fitted or top-dose-only effect, or another doubt; inactive = no such curve, though single readings can be large; an effect the other way counts as inactive or inconclusive. Potency is read from the fitted curve at half-maximal effect.

SMILES	SARS PLpro yeast	Cruzain inh Det	NS1 inh	MARV entry inh	Cruzain inh noDet	RE007 growth inh	LASV entry inh	StopGo reporter
CSc1ccc(Cn2nnc(C(=O)Nc3ccc(C)cc3Cl)c2N)cc1	x	-0.3%	x	11.5%[46.1 µM]	-6.4%	x	-5.7%[46.1 µM]	64.4%[activator]
CCOc1ccc(S(=O)(=O)NCCc2sc(-c3ccc(C)cc3)nc2C)cc1	x	-8.2%	x	x	4.7%	x	-27.6%[46.1 µM]	18.3%
CCOC(=O)c1ccc(NC(=O)c2c(NCc3cccs3)sc3c2CCCC3)cc1	x	-20.3%	x	x	0.8%	x	-25.9%[46.1 µM]	15.1%
Cc1c(CCO)c(=O)[nH]n1S(=O)(=O)c1ccc(Cl)cc1Cl	u	x	-1.0%	-6.2%[46.1 µM]	x	2.1%	0.6%[46.1 µM]	0.0%
CCOC(=O)c1nc(C)n(-c2cc(Cl)ccc2Cl)n1	-4.6%	12.9%	-2.4%	12.3%	1.0%	-1.9%	3.7%	-9.3%
Cc1ccc(NC2=CC(=O)CC(C)(C)C2)cc1Cl	3.8%	x	1.4%	14.4%[46.1 µM]	x	-1.2%	3.1%[46.1 µM]	-12.6%
CSc1ccc(S(=O)(=O)Nc2ccc3c(c2)OCCO3)cc1	16.1%	-4.9%	-10.3%	-24.6%	19.5%	-2.7%	5.3%	5.4%
Cc1ccc(Cl)cc1N1CCN(C(=O)c2noc3c2CCCC3)CC1	x	-6.3%	x	x	8.8%	x	-11.8%[46.1 µM]	-9.7%
Cc1ccc(OCc2cc(C(=O)N(C)Cc3cnc4ccccn34)no2)cc1C	-2.4%	x	8.4%	x	x	-0.8%	x	u
Nc1n[nH]c(N)c1N=Nc1ccc2c(c1)OCO2	-0.8%	x	10.3%	x	x	-6.1%	x	84.5%[activator]
Cc1ccc(NC(=O)CC2Oc3ccccc3NC2=O)c(C)c1 (stereo not given)	4.2%	4.2%	-5.3%	x	-4.0%	-2.6%	x	-21.2%
CCCCN1C(=O)N(c2ccccc2Cl)C(C)(O)CC1(C)C (stereo not given)	-0.7%	x	-4.8%	x	x	3.9%	x	-29.3%
COc1cc(Nc2c3c(nc4ccccc24)CCCC3)cc(OC)c1OC	0.3%	x	x	4.47µM*	x	-2.8%	-18.5%[46.1 µM]	-10.4%
COc1ccc(OC)c(-c2nc(C(=O)NC3CCN(Cc4ccccc4)CC3)cc3c2[nH]c2ccccc23)c1	-6.0%	x	-3.4%	x	x	-5.4%	x	u
COc1ccc(C2CC(c3ccccc3)Nc3nc(N)nn32)cc1 (stereo not given)	0.5%	0.8%	16.3%	0.5%	5.7%	-3.4%	0.3%	-25.3%
Cc1ccc(-c2csc(N(C)C(=O)c3c(C)nn(-c4ccccc4)c3Cl)n2)cc1	-2.3%	-0.5%	20.8%	u	-26.2%	-3.0%	7.6%	x
Cc1cccc(Cn2c(C(C)(C)C)cc3cccnc32)c1	u	-0.7%	-13.2%	u	-6.9%	-14.2%	u	-27.8%
O=C(Nc1nccs1)c1cc(N2CCOCC2)nc2ccccc12	1.9%	-1.3%	-18.6%	4.2%	14.9%	-9.2%	4.1%	0.0%
COc1cccc(NC(=O)Cn2c(=O)n(-c3ccc(Cl)cc3)c(=O)c3sc4ccccc4c32)c1	x	-5.8%	x	0.9%[46.1 µM]	u	x	4.6%[46.1 µM]	12.2%
CC(=O)O[C@@]12CO[C@@H]1C[C@H](O)[C@@]1(C)C(=O)[C@H](O)C3=C(C)[C@@H](OC(=O)[C@H](O)[C@@H](NC(=O)c4ccccc4)c4ccccc4)C[C@@](O)([C@@H](OC(=O)c4ccccc4)C12)C3(C)C (stereo not given in full)	-1.8%	x	-27.3%	x	x	-5.6%	x	-9.1%
Cc1nc([N+](=O)[O-])c(Br)n1CC(=O)c1ccc2ccccc2c1	-31.7%	-3.9%	-219.2%	17.8µM*	-17.2%	22.2%	u	22.4µM*
CCn1cc(C(=O)N(C)Cc2ccccc2)c(=O)c2cc(S(=O)(=O)N3CCCCCC3)ccc21	x	-8.5%	x	x	15.6%	x	-15.5%[46.1 µM]	35.8%[activator]
Cc1ccc(NC(=O)N2C3CCCC2CC(NC(=O)C(C)(C)C)C3)cc1 (stereo not given)	5.7%	x	24.9%	x	x	4.5%	x	-12.7%
O=C(CCn1c(=O)oc2ccccc21)n1c(=O)oc2ccccc21	-3.4%	6.9%	-16.8%	7.4%	8.3%	19.5%	-1.3%	23.0%
COc1ccccc1CCC(=O)OCC(=O)NC1CC1	-3.2%	x	x	4.1%[46.1 µM]	x	11.0%	8.0%	-18.3%
SMILES	SARS PLpro yeast	Cruzain inh Det	NS1 inh	MARV entry inh	Cruzain inh noDet	RE007 growth inh	LASV entry inh	StopGo reporter
COc1nsnc1NS(=O)(=O)c1ccc(NC(=S)NC(=O)c2cccnc2)cc1	-0.9%	x	8.7%	23.6%[46.1 µM]	x	-14.6%	-2.9%	31.4%[activator]
COc1ccc(C(N)CCc2ccco2)cc1 (stereo not given)	7.9%	9.6%	-0.7%	u	-9.5%	13.8%	3.8%	4.1%
O=C(CN1CCN(c2ccc(F)cc2)CC1)NCC1CCCO1 (stereo not given)	2.6%	5.7%	-1.2%	19.9%	-0.7%	-0.8%	-8.2%	-19.0%
Cc1c(C(=O)OCC(C)(C)CN(C)C)oc2ccccc12	-1.6%	3.7%	-0.4%	u	0.0%	-10.8%	-1.9%	22.2%
O=C1NC(c2ccccc2)CCO1 (stereo not given)	6.4%	x	11.8%	x	x	4.6%	x	-4.9%
O=S(=O)(NCc1cccnc1)c1ccccc1	3.7%	7.9%	0.3%	-12.6%	-3.1%	1.1%	-2.6%	21.3%
Cc1csc(NC(=O)CSc2ccc([N+](=O)[O-])cn2)n1	-2.7%	x	-3.5%	x	x	5.4%	x	-0.4%
Cc1cc(C)n(CC(O)Cn2ccc3ccccc32)n1 (stereo not given)	1.9%	0.1%	2.4%	-18.9%	-0.9%	-6.9%	16.8%	-11.3%
S=C(NCc1cccnc1)Nc1cccc2ccccc12	-7.3%	-5.7%	7.7%	3.7%	-10.0%	-7.9%	3.4%	-7.9%
CCOc1ccccc1NC(=O)COC(=O)C1CC(=O)N(c2c(C)cccc2C)C1 (stereo not given)	2.0%	x	5.3%	5.3%[46.1 µM]	x	0.3%	6.0%	-6.4%
Cc1ccc(-c2nc3ncccc3o2)cc1NC(=O)c1ccccc1Br	x	-1.3%	x	x	1.7%	x	-4.2%[46.1 µM]	8.6%
CCOc1ccc(Nc2nc(NCC(=O)O)nc(N)c2[N+](=O)[O-])cc1	1.8%	x	8.3%	4.7%[46.1 µM]	x	2.2%	-20.2%	22.1%
COc1ccc(Cl)cc1NC(=O)CN(C)C(=O)c1cc2ccccc2cc1OC	-3.0%	x	x	u	x	22.2%	u	-13.2%
CCOc1cc(C(=O)Nc2cc3c(cc2N2CCOCC2)n(C)c(=O)n3C)cc(OCC)c1OCC	-10.7%	0.8%	11.1%	-26.1%&-26.1%[46.1 µM]	3.4%	2.3%	2.8%[46.1 µM]	-2.4%&-10.2%
Cc1ccc(S(=O)(=O)C2(C(=O)NC3CCCC3)CC2)cc1	1.7%	4.3%	0.1%	5.6%	-2.5%	1.7%	4.8%	11.6%
OCC1(Cc2ccccc2)CCCN(Cc2ccc3c(c2)OCCO3)C1 (stereo not given)	1.3%	x	1.0%	-11.4%[46.1 µM]	x	-2.8%	-6.9%[46.1 µM]	-11.4%
CCCCOn1c(C)c(C(C)=O)c2c3no[n+]([O-])c3ccc21	2.4%	x	9.1%	-18.1%[46.1 µM]	x	-19.9%	5.7%	-15.8%
CC(=O)Nc1nnc(-c2ccc3c(c2)CCCC3)o1	-14.4%	-1.8%	-67.5%	x	-10.0%	-13.4%	x	19.9%
CC(=O)NC(Cc1ccccc1)C(=O)N1CCN(C(=S)NCC(C)C)CC1 (stereo not given)	1.2%	x	x	0.4%[46.1 µM]	x	-11.5%	15.6%[46.1 µM]	-4.5%
CCCCSCCCNC(=O)C1CCC(CNS(=O)(=O)c2c(C)cc(C)cc2C)CC1 (stereo not given)	x	-2.1%	x	x	5.7%	x	7.6%[46.1 µM]	4.7%
CCN=C1S/C(=C\c2cn(CC(=O)NCc3ccco3)c3ccccc23)C(=O)N1CC	-0.9%	x	2.7%	-5.6%[46.1 µM]	x	64.8%	-15.6%	-23.4%
CCOc1ccc(-n2c(Cc3cc(=O)[nH]c(=O)[nH]3)nnc2SC(C)C(=O)OC)cc1 (stereo not given)	2.8%	-0.9%	0.9%	2.1%	15.1%	x	x	x
COCCNC(=O)c1ccc(CS(=O)(=O)c2ccccc2)o1	1.3%	6.9%	1.5%	-3.7%	4.3%	-4.3%	3.2%	-3.9%
O=c1c2cnn(-c3ccc(F)cc3)c2ncn1Cc1ccc(F)cc1	22.6%	0.2%&-2.6%	7.1%	3.1%[46.1 µM]	u	7.1%	u	-20.7%&-14.7%
COc1cccc(NC(=O)CN2C(=O)COc3ccc(C)cc32)c1	2.8%	x	1.7%	u	x	3.8%	-18.0%[46.1 µM]	-26.4%
O=C(NCc1cccnc1)Nc1cccc(F)c1	0.1%	x	-12.7%	x	x	4.4%	x	5.6%
Cc1cc(C)cc(C(=O)OCC(=O)N2CCCC2)c1	2.6%	x	-4.0%	-2.2%[46.1 µM]	x	0.0%	13.0%	4.0%

3 compounds already listed, ordered by molar mass, smallest number first.
SMILES	SARS PLpro yeast	Cruzain inh Det	NS1 inh	MARV entry inh	Cruzain inh noDet	RE007 growth inh	LASV entry inh	StopGo reporter
CC(=O)Nc1nnc(-c2ccc3c(c2)CCCC3)o1	-14.4%	-1.8%	-67.5%	x	-10.0%	-13.4%	x	19.9%
Cc1c(C(=O)OCC(C)(C)CN(C)C)oc2ccccc12	-1.6%	3.7%	-0.4%	u	0.0%	-10.8%	-1.9%	22.2%
CCOc1ccc(-n2c(Cc3cc(=O)[nH]c(=O)[nH]3)nnc2SC(C)C(=O)OC)cc1 (stereo not given)	2.8%	-0.9%	0.9%	2.1%	15.1%	x	x	x

Assay outcomes (PubChem)

Rows are unselected; about 4.7% have a hit in one of these screens.
